# From PubChem
# FGF22 binding: shifts melting point of recombinant human FGF22 | Q9HCT0 | recombinant FGF22 thermal shift, SYPRO orange fluorescence; percent of sucrose octasulfate shift, DMSO zero | calls only at 9.99 µM | 1.5% of 340,000 active | AID 651658;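 active means melting point raised past a set limit in the mean and every replicate; inconclusive means no clear call; three in four hits are not shown here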
# Target sequence (Q9HCT0 whole entry, looked up): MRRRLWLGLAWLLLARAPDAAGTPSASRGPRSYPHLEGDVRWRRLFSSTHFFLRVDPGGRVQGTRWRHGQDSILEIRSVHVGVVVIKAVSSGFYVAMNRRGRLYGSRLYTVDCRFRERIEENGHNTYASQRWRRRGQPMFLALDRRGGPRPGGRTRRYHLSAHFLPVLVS
# B2AR ag: agonists of human beta-2 adrenergic receptor inducing internalization; response, % (no concentration beside the values); Am2.2-beta2AR cells, FAP receptor internalization, flow cytometry; reference of the scale not given here; 0.43% of 340,000 active;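 active means response above a set limit, near 3 SD of response in nonfluorescent compounds, cut at about 42% in these data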;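 further: stock transfer was 100 nL into about 11 µL; a reference agonist was the positive control; negative values mostly stem from fluorescent compounds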
# Target sequence (P07550 whole entry, looked up): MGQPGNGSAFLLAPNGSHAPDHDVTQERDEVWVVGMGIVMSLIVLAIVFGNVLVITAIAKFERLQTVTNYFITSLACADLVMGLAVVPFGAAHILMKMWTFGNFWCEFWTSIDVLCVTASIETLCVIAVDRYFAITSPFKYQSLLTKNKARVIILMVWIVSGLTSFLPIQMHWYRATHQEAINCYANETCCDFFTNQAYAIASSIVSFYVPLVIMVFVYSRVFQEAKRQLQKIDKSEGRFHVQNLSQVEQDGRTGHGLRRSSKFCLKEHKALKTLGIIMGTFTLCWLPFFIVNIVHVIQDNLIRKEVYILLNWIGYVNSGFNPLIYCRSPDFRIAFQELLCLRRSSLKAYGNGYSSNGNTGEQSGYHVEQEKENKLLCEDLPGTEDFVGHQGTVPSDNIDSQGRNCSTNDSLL
# HNF4A DNA FP: change in binding of human HNF4 alpha to DNA. P41235. HNF4a-FITC DNA binding, fluorescence polarization, 1 h. activity change, % at 10 µM. 0.3% of 360,000 active; in the data active means activity change above about 30%, passing the limit was not always enough;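 further: controls were the assay level and a saturating level of protein; the project sought stronger binding though the title names inhibitors; some compounds called inactive have numbers as strong as hits; positive values seem to mean higher polarization but the record does not say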
# Target sequence (P41235 whole entry, looked up): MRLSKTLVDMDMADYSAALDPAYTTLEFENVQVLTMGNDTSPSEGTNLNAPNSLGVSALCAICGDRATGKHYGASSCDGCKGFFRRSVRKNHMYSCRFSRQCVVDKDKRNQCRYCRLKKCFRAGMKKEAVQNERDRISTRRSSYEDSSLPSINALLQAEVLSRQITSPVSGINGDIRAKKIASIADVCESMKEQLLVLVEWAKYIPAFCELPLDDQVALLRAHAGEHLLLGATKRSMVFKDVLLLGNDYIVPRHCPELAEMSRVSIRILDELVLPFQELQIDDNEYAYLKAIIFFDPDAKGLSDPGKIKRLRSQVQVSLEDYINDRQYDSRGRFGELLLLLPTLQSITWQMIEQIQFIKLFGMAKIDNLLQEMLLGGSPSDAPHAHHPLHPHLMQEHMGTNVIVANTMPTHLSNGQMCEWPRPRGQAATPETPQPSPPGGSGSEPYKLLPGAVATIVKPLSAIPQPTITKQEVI
# rRNA inh HTS: inhibits bacterial ribosomal RNA function over humanized ribosomes | E. coli WT GFP vs humanized-ribosome RFP mutants, fluorescence, 24 h; stronger effect = lower value; DMSO median 0, no signal -100 | GFP signal change (wild-type ribosome), % (no concentration beside the values) | 1.6% of 350,000 active | AID 720706;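 active means significant combined selectivity score with lowered wild-type GFP, culture density cut under 30%, mutant RFP and density less affected; inactive means any of these conditions unmet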; further: one replicate is shown; some compounds called inactive have numbers as strong as hits
# Ecoli growth: inhibitors of Escherichia coli growth. OD600, 23 h; stronger effect = lower value. OD600 absorbance (no concentration beside the values). 0.21% of 330,000 active. AID 1053175;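 active means OD600 absorbance below the run mean of sample wells minus 3.6 SD, in any replicate, cut at about 0.56 in these data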;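 further: stock transfer was 300 nL into about 60 µL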
# UCH37 DUB inh: human UCH37 deubiquitinating enzyme inhibition | purified proteasome/UCH37, Ub-AMC cleavage fluorescence | 0.33% of 330,000 active | Q9Y5K5 | inhibition, % (concentration not given with the values);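 active means mean of two replicates above 20%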;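 further: 0% = compound-free wells with enzyme and 100% = wells lacking proteasome; stock transfer was 100 nL into about 20 µL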
#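 Signal – fluorescence, ex 355 nm, em 460 nm · System – Proteasome-bound UCH37 · Input – 0.15 nM proteasome as dispensed · Timing – 30 min preincubation with enzyme, 25 min cleavage at room temperature · Read-out basis – percent inhibition of cleavage signal versus uninhibited and no-proteasome wells · Medium – Tris-HCl pH 7.4 with ATP-MgCl2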
# ALR H2O2 inh: human ALR oxidase inhibition via reduced H2O2. purified ALR, DTT oxidation, H2O2 HRP-luminol luminescence. inhibition, % (concentration not given with the values). 3.8% of 290,000 active;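 active means mean and each replicate at 75% or more; inconclusive means only one of the two met; inactive means neither met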;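 further: stock transfer was 7.5 nL into about 7.5 µL; 0% = neutral wells and 100% = wells with inactivated enzyme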
# rRNA inh HTS OD600: second read-out of rRNA inh HTS, no call of its own (marks repeat the call); OD600 change, %; measured here: OD600 growth;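 optical density of the mix in the first replicate; 0 = DMSO median and -100 = no signal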
# rRNA inh HTS RFP: further read-out of rRNA inh HTS, marked with its call; RFP signal change, %; measured here: RFP humanized mutant strains;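 first replicate; 0 = DMSO median and -100 = no signal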
# An asterisk follows results filed as active; i = inactive; u = inconclusive; x = no result given; & = joins results of further samples.
SMILES,FGF22 binding,B2AR ag,HNF4A DNA FP,rRNA inh HTS,rRNA inh HTS OD600,rRNA inh HTS RFP,Ecoli growth,UCH37 DUB inh,ALR H2O2 inh
Cc1cccc(NC(=O)NNC(=O)c2ccc3ccccc3c2O)c1,i,-2,-0.7,-12,-12,-4.8,0.7,-141,1
O=C(CCN1C(=O)COc2ccccc21)NCCCN1CCCC1,i,-2,3.6,7,8,0.4,0.61,2.8,-3
Cc1nn(C)cc1C(=O)Nc1cc(Oc2ccc(Cl)cc2)cc([N+](=O)[O-])c1,i,-12,2.0,8,10,-1.7,0.78,2.0,-5
CCOC(=O)N1CCC(Nc2ncnc3c2cnn3-c2ccc(C)cc2C)CC1,i,-1,-3.2,-5,-5,-6.4,0.77,5.9,-12
Cc1ccc(S(=O)(=O)NC(N)=NCCc2ccc(Cl)cc2)cc1,x,2,1.8,x,x,x,0.68,4.5,-10
CCN(C(=O)CN1C(=O)c2ccccc2S1(=O)=O)C1CCCCC1,i,-3,-7.6,-3,0,-2.0,0.66,1.9,1
O=C(COC(=O)CNC(=O)c1ccc(Cl)cc1)NC1CCCCCC1,i,1,1.0,3,7,-0.2,0.63,2.0,-4
CCN(CC)c1ccc(/C=N/NC(=O)CNC(=O)c2ccc3c(c2)OCCO3)cc1,x,34,1.4,-5,2,-1.1,x,x,87*
CCOc1c(OC)cccc1C1CC(=O)Nc2cc3c(cc21)OCCO3 (configuration not stated),i,1,4.7,-7,-20,0.0,0.73,3.9,-18
S=c1c2[nH]cnc2ncn1CCSc1ncnc2nc[nH]c12,i,-16,-2.4,23,11,7.2,x,x,x
CCCN(CC(=O)Nc1ccccc1C)C(=O)C1CC(=O)N(c2ccccc2OCC)C1 (configuration not stated),i,-2,-0.5,3,5,1.7,0.67,-1.4,x
S=C(c1ccc(Br)cc1)N1CCN(Cc2ccccc2)CC1,i,-3,-0.1,-22*,-14*,-6.0*,0.64,5.3,-4
Cc1ccc(C)c(CN2C(=O)c3ccccc3S(=O)c3ccc(C(=O)NCCCN4CCCC4)cc32)c1 (configuration not stated),i,22,0.7,4,-5,4.8,0.68,0.5,-6
Clc1ccc(OCCN2CCOCC2)cc1,i,-3,1.5,10,7,-3.2,0.68,1.9,-1
Cc1cccc(-c2oc3ccccc3c2-c2ccc3c(c2)OCO3)c1,i,-8,1.2,-35,-53,-3.2,x,x,-3
CC1CCc2sc(C(=O)NC(C)C3CCCO3)cc2C1 (configuration not stated),i,-1,1.9,-2,-10,0.7,0.74,4.0,-7
CCc1noc(C)c1C(=O)Nc1cc(S(=O)(=O)N2CCCCC2)ccc1N(C)C,i,-4,-1.1,-10,-13,0.9,0.68,1.4,-2
COc1ccc(Cl)cc1NC(=O)Cn1c(NCCO)nc2ccccc21,i,6,3.4,-9,-4,5.7,0.68,0.5,8
COc1ccc(C(CNC(=O)c2sccc2C)N2CCOCC2)cc1 (configuration not stated),i,1,-5.6,16,13,1.8,0.65,3.9,4
C=CCn1c(O)c(N=NC(=O)CNC(=O)/C=C/c2ccco2)c2ccccc21,x,-6,-27,x,x,x,0.7,6.5,4
S=C(NCc1cccs1)Nc1ccc(Cl)cc1,x,4,-3.6,x,x,x,0.6,2.7,4
COc1ccc(-n2ncc(N(C)n3cccc3)c(Cl)c2=O)cc1,x,-5,0.0,x,x,x,0.71,3.3,-6
COc1ccc(NC(=O)Cc2ccc(C)c(C)c2)cc1Cl,i,3,2.6,3,9,4.5,0.69,0.9,x
O=C(NC1CCCC1)C(c1ccccn1)N(C(=O)c1csnn1)C1CCCC1 (configuration not stated),x,5,3.0,x,x,x,0.69,0.6,-26
COc1ccc(S(=O)(=O)N2CCN(C)CC2)c(C)c1,i,-1,0.2,7,11,-1.5,0.66,1.5,-18
COc1cc(OC)c2c(-c3cccc(-c4ccc(C(F)(F)F)cc4)c3)cc(=O)oc2c1,i,13,1.6,15,12,0.3,x,x,x
O=C(Nc1ccccc1C(=O)N1CCOCC1)c1ccc([N+](=O)[O-])cc1,i,-3,-0.2,13,12,-2.9,0.7,6.8,-15
O=C(CSc1ccc(F)cc1)NC1CCCCC1,i,-9,0.3,13,4,-0.3,0.69,3.0,2
Cc1cc(C)n(CCc2nc(-c3ccco3)cs2)n1,i,-4,-8.4,15,22,-2.2,0.76,6.0,99*
CC1CCCC(NC(=O)COC(=O)/C=C/c2ccc([N+](=O)[O-])cc2)C1C (configuration not stated),i,0,-1.0,7,2,1.1,0.68,3.1,x
CCOC(=O)C1CCN(C(=O)C(=O)Nc2ccc3nc4n(c(=O)c3c2)CCCCC4)CC1,i,6,0.8,-3,-2,-0.2,0.78,2.6,-18
COC(=O)N/N=C/c1cc(N=Nc2ccccc2Cl)ccc1O,i,15,-2.7,3,10,1.9,x,x,-1
O=S(=O)(c1cccc(NC(=S)Nc2ccc(Br)cc2Cl)c1)N1CCOCC1,x,-4,1.3,x,x,x,0.71,-1.4,22
CCn1c(Cn2nnc(-c3ccccc3)n2)nnc1SCC(=O)N1CCOCC1,x,22,1.3,3,7,3.9,0.64,1.8,-26
COc1ccc(C2CC(c3ccccc3OC(C)=O)=NN2C(=O)/C=C/c2ccccc2)cc1OC (configuration not stated),x,39,-0.6,x,x,x,0.76,3.7,x
CCOc1ccc(C(Nc2ccc(C)cc2)P2(=O)OCC(C)(C)CO2)cc1 (configuration not stated),x,-4,-0.9,x,x,x,0.68,-1.2,51
Cc1cc(-n2c(C)cc(C(=O)COc3ccc(F)c(F)c3)c2C)no1,x,4,1.9,x,x,x,0.67,1.4,2
CCCCN(c1ccccc1)c1ncnc2nc[nH]c12,x,6,0.2,x,x,x,0.71,2.9,x
CNc1ncc(C(=O)c2ccccc2)s1,x,4,-5.0,11,7,-0.5,0.7,15,x
N#Cc1c2n(c3c(=O)n(Cc4ccccc4Cl)cnc13)CCCC2,x,-15,3.7,x,x,x,0.74,-1.5,3
CC1CCCN(c2ncnc3c2cnn3-c2ccccc2)C1 (configuration not stated),i,-8,2.9,-40,-57,-9.5,0.68,5.4,5
CC(C)N1CC2(CC(c3ccccc3F)=NO2)CN1C(=O)c1ccc(C(C)(C)C)cc1 (configuration not stated),i,x,-3.1,-18,-23,9.5,x,x,x
NC(=O)CC(NC(=O)c1ccccc1)c1ccc(N2CCN(c3ccccc3)CC2)c([N+](=O)[O-])c1 (configuration not stated),i,-8,15,6,13,5.9,0.68,2.3,36
C[C@@H]1CN([C@H](C)CO)C(=O)CCCn2cc(nn2)CO[C@H]1CN(C)C(=O)Nc1cccc(F)c1,i,x,3.1,8&0,6&1,-0.1&-1.3,x,x,x
CC(C)(C)OC(=O)N(Cc1ccccc1)Cc1ccccc1OCc1cccc(NC(=O)C2CC2)c1,i,-4,-4.5,0,-22,-4.4,x,x,x
CCN(c1ccccc1)S(=O)(=O)c1cccc(C(=O)N(C)CC(=O)Nc2ccc(F)c(F)c2F)c1,i,-1,-4.8,-26,-52,4.6,0.69,1.4,x
Cc1ccccc1-c1cc(C(=O)NCc2ccc3c(c2)OCO3)nn1CC1CC(c2cccc([N+](=O)[O-])c2)=NO1 (configuration not stated),i,5,8.0,12,-2,-11,0.71,0.3,-1
N#CCC(=O)Nc1ccc(C(=O)NNC(=O)CCN2CCN(c3ccccc3)CC2)cc1,i,-1,2.5,0,18,-0.3,0.68,0.8,u
Cn1c(=O)n(C)c2cc(/C=N/NC(=O)c3ccc(Cl)cc3Cl)ccc21,x,-4,0.0,x,x,x,x,x,14
COc1ccc(NC(=S)NC(NC(=O)C(C)C)C(Cl)(Cl)Cl)c([N+](=O)[O-])c1 (configuration not stated),x,-2,1.1,x,x,x,0.74,2.4,-1
COC(=O)c1cc2oc(C)cc2n1CC(=O)N(C)c1ccccc1,i,-8,-2.1,22,12,-5.9,0.71,5.6,3
CCCN(C(=O)c1cc(S(=O)(=O)N(C)c2ccc(OCC)cc2)ccc1C)C1CCS(=O)(=O)C1 (configuration not stated),i,0,1.6,-2,-3,-0.9,0.68,-3.9,0
COc1ccccc1N1N=C(c2cccs2)CC1c1ccccc1 (configuration not stated),x,-5,0.8,x,x,x,0.75,i,97*
CN(Cc1ccc(F)cc1)C(=O)c1sccc1-c1ccccc1,i,-4,22,-51,-77,-14,0.73,-3.6,-7
Oc1ccc(-c2nc(-c3ccc(O)c(O)c3)cs2)cc1,x,1,1.8,x,x,x,0.57,1.0,99*
CCCn1c(SCC(=O)/C(C#N)=C(\C)N)n[nH]c1=O,x,0,-0.8,x,x,x,0.69,2.1,0
O=C(NC1CCCCC1)C(c1ccncc1)N(Cc1ccccc1)C(=O)c1ccc(-c2ccccc2)[nH]1 (configuration not stated),x,-3,1.0,x,x,x,0.68,-1.2,0
Cc1noc(C)c1COC(=O)CCCNC(=O)c1ccc(Cl)cc1,i,-12,-0.2,4,-14,-3.9,0.65,4.8,-16
N/C(Cc1ccc(Cl)cc1Cl)=N\OC(=O)Cc1ccc(Cl)cc1,i,-1,-1.3,-9,-16,-1.3,x,4.4,-1
Cc1cc(NC(=O)CN2CCCC2c2nc3ccccc3s2)no1 (configuration not stated),x,6,1.2,x,x,x,0.73,3.1,x

# Grouped by structure: the entries above with an NH in an aromatic ring (4)
SMILES,FGF22 binding,B2AR ag,HNF4A DNA FP,rRNA inh HTS,rRNA inh HTS OD600,rRNA inh HTS RFP,Ecoli growth,UCH37 DUB inh,ALR H2O2 inh
S=c1c2[nH]cnc2ncn1CCSc1ncnc2nc[nH]c12,i,-16,-2.4,23,11,7.2,x,x,x
CCCCN(c1ccccc1)c1ncnc2nc[nH]c12,x,6,0.2,x,x,x,0.71,2.9,x
CCCn1c(SCC(=O)/C(C#N)=C(\C)N)n[nH]c1=O,x,0,-0.8,x,x,x,0.69,2.1,0
O=C(NC1CCCCC1)C(c1ccncc1)N(Cc1ccccc1)C(=O)c1ccc(-c2ccccc2)[nH]1 (configuration not stated),x,-3,1.0,x,x,x,0.68,-1.2,0

# The listing picks up with the 3 entries that preceded the break.
SMILES,FGF22 binding,B2AR ag,HNF4A DNA FP,rRNA inh HTS,rRNA inh HTS OD600,rRNA inh HTS RFP,Ecoli growth,UCH37 DUB inh,ALR H2O2 inh
Cc1noc(C)c1COC(=O)CCCNC(=O)c1ccc(Cl)cc1,i,-12,-0.2,4,-14,-3.9,0.65,4.8,-16
N/C(Cc1ccc(Cl)cc1Cl)=N\OC(=O)Cc1ccc(Cl)cc1,i,-1,-1.3,-9,-16,-1.3,x,4.4,-1
Cc1cc(NC(=O)CN2CCCC2c2nc3ccccc3s2)no1 (configuration not stated),x,6,1.2,x,x,x,0.73,3.1,x
CCN(C(=O)C(C)OC(=O)c1nn(-c2ccccc2C(F)(F)F)cc1O)c1ccccc1 (configuration not stated),i,-2,2.2,x,x,x,0.64,-2.5,-24
COc1ccc(C(C)(C)C)cc1NC(=O)C1CC(=O)N(C2CCCC2)C1 (configuration not stated),i,-7,1.5,1,-10,4.7,0.66,0.4,-7
O=C(CCN1C(=O)c2ccccc2S1(=O)=O)NCc1ccccc1Cl,i,-3,2.7,3,0,1.0,0.68,3.9,x
COc1ccccc1CC(=O)Nc1cccc(F)c1,i,7,1.6,-12,-14,-6.7,0.72,3.8,-7
CC(=O)Nc1ccccc1P(=O)(c1ccccc1)c1ccccc1OC(C)=O (configuration not stated),i,-3,0.4,9,7,0.1,0.67,0.9,-2
CC(=O)Nc1cccc(-c2ccnc3c2CC(C(=O)NCc2cccs2)O3)c1 (configuration not stated),i,x,3.9,-10,-2,5.7,x,x,x

# A portion of the library; the hit share may differ from the screen's.
